# gsp antagonist = qHTS for Antagonists of gsp, the Etiologic Mutation Responsible for Fibrous Dysplasia/McCune-Albright Syndrome: qHTS | hit rate 0.4% among 340,000 | Potency, µM (series often up to 76.9 µM), without a hit: top-dose activity change, negative = inhibition, hits mostly inhibitors | gsp-mutant cells, cAMP HTRF, 30 min; control for the full effect not named in the record; active = falling curve of any shape with a large fitted effect; inconclusive = falling curve, mostly with a smaller effect; inactive = flat or rising curve; cell line not stated here;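 note: intracellular cAMP measured with PDE inhibitor Ro 20-1724 present during compound exposure; potency is the fitted concentration of half-maximal effect; % is set by controls: 0 for no effect and ±100 for the full control effect; nearly all actives have a fitted effect of over 65% in size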
#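 G418-selected cells were plated in DMEM/10% FBS for 16-24 h at 37C, then treated with compounds plus the PDE inhibitor […] (300 uM solution added) for 30 min at 37C. Intracellular cAMP was measured by HTRF after 30 min lysis at room temperature.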
# Menin-MLL FL inh = qHTS Assay for Inhibitors Targeting the Menin-MLL Interaction in MLL Related Leukemias: Competition With Fluorescein Labeled MLL-derived Peptide | Fluorescence polarization, fluorescein-MLL peptide displacement from menin | FP activity change, % at 61.4 µM | 290,000 tested, under 10 active; inconclusive = falling polarisation curve, or a change in total fluorescence; inactive = total fluorescence flat and polarisation flat or rising; no compound was filed as active; the % refers to the polarisation; negative = inhibition;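 note: % of control where 0% means no effect; inhibitors lower the polarisation; unlabelled MLL peptide was the positive control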
# ClpP mod = qHTS Assay for Activators of ClpP. purified B. subtilis ClpP, FRET peptide cleavage, 20 min. Potency, µM (highest dose often 57.5 µM), for inactives: at the highest dose activity change, negative = active. hit rate 1.9% among 340,000; active = well fitted falling curve with a large enough effect; inconclusive = small, poorly fitted or top-dose-only effect; inactive = no such curve, though single readings can be large or run the other way; note: potency is the fitted concentration of half-maximal effect; the source files actives as falling curves though it sought activators and does not explain the sign; nearly all actives have a fitted effect of over 65% in size; many hits overshoot -100%
# Target sequence (P80244 whole entry, looked up): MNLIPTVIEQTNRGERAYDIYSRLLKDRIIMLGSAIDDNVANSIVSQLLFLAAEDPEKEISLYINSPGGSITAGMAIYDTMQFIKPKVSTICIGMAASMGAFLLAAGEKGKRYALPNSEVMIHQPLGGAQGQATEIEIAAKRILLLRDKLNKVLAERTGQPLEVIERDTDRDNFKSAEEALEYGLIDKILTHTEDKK
#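 ClpP 10 microg/mL final, pH 8 Tris/KCl buffer with BSA, glycerol, Tween-20; compound pinned in; FRET-FV substrate; RT 20 min; Ex320/Em430; ΔFRET vs ADEP 5.8 microM, DMSO, no enzyme.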
# TRPV1 potentiator = HTS Assay for Compounds that Act as Potentiators of the Vanilloid Receptor 1; hit rate 0.02% among 320,000; TRPV1-expressing cells, Fluo-8 calcium influx, capsaicin EC20 potentiation; host cell line not named in the record; control for the full effect not named in the record; AID 540277, 2011; Transient receptor potential cation channel subfamily V member 1 (Homo sapiens), Q8NER1; potentiation, % at 8.33 µM; active means potentiation above 80%; inconclusive means 30% to 80%; inactive means below 30%; note: 0% is about no effect
#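 TRPV1-expressing cells were cultured overnight at 35.5C and loaded with Fluo-8 calcium dye for 40 to 90 min at room temperature. After a 10 s baseline, compound was added and calcium influx was read kinetically for 3 min (ex 480/em 520 nm).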
# D2 PAM = Beta-Arrestin HTS for Positive Allosteric Modulators of the Human D2 Dopamine Receptor: Potentiators | AID 624464, 2012 | potentiation, % (test concentration not listed) | DiscoveRx D2 beta-arrestin cells, luminescence, 90 min; 100% = 57 uM dopamine signal | hit rate 0.23% among 360,000; active = potentiation of 50% or more; inconclusive = 30% to 50%; inactive = 30% or less;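 note: compound concentration not given in the record; tested on top of an EC20 dose of dopamine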
# Target sequence (P14416 whole entry, looked up): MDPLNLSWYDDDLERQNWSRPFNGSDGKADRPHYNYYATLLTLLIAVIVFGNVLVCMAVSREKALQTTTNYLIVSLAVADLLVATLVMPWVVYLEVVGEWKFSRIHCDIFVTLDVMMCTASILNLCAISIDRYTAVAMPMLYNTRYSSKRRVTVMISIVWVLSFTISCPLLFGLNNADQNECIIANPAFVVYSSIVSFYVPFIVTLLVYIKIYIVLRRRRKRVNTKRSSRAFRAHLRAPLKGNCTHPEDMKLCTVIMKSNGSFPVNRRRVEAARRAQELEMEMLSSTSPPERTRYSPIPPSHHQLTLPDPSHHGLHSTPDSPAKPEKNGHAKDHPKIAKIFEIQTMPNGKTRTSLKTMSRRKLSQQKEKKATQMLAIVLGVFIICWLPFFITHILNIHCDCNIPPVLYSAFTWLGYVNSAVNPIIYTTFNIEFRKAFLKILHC
#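 D2 cells co-treated with compound plus 50 nM dopamine (EC20) for 90 min at 37 deg C to detect potentiation. Beta-arrestin recruitment was read as enzyme-fragment luminescence after 1 h at ambient temperature. Full response was set by 57 uM dopamine.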
# Sfp PPTase inh = qHTS Assay for Inhibitors of Bacillus subtilis Sfp phosphopantetheinyl transferase (PPTase). hit rate 3.5% among 310,000. Biochemical Sfp PPTase activity, qHTS. Potency, µM, without a hit: max response, negative = inhibition, most hits filed as inhibitors. AID 1490, 2009. 4'-phosphopantetheinyl transferase ffp (Bacillus subtilis), Q9F4F7; active = well fitted inhibition curve with a large enough effect; inconclusive = small, poorly fitted or top-dose-only effect, or another doubt; inactive = no such curve, though single readings can be large or run the other way;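 note: the enzyme is Sfp with the accession as filed and its product quenches rhodamine fluorescence; potency is the fitted concentration of half-maximal effect; 0% = enzyme reaction without inhibitor and -100% = no enzyme wells; top concentration of the series not given in the record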
#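 Fluorescence-quenching assay: 15 nM Sfp-PPTase preincubated 15 min at room temperature with compound, then 5 uM rhodamine-CoA and 12.5 uM BHQ-2-labelled YbbR peptide added. Fluorescence (ex 525/em 598 nm) read at start and after 30 min; difference gives rate.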
# gsp agonist = qHTS for Agonist of gsp, the Etiologic Mutation Responsible for Fibrous Dysplasia/McCune-Albright Syndrome: qHTS; gsp mutant cells, cAMP HTRF, 30 min; control for the full effect not named in the record; Potency, µM (titrated, usually from 76.9 µM), for inactives: top-dose activation (cAMP increase), most hits filed as activators; hit rate 0.13% among 340,000; active = well fitted activation curve with a large enough effect; inconclusive = small, poorly fitted or top-dose-only effect, or another doubt; inactive = no such curve, though single readings can be large or run the other way; cell line not stated here;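 note: phosphodiesterase inhibitor Ro 20-1724 added with compounds to block cAMP breakdown; potency is the fitted concentration of half-maximal effect; nearly all actives have a fitted effect of over 60% in size; about a fifth of the inactives were tested at one dose only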
#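 Cells in DMEM/10% FBS with G418 were pretreated with compounds in DMSO plus […] (300 uM stock) for 30 min at 37C. cAMP was measured by HTRF (cAMP-d2 plus anti-cAMP antibody-K) after 30 min at room temperature.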
# * hit, by the source's call; u = inconclusive; x = not tested or not shown; & = joins results of further samples; [ ] = remark or other dose.
# Second line of a record – TRPV1 potentiator	Menin-MLL FL inh	ClpP mod	gsp antagonist	gsp agonist	Sfp PPTase inh	D2 PAM
CN1c2ccc(C=O)c3c(C=O)ccc(c23)N(C)C1(C)C
 : -12	u	x	u	21%	-1%	6
Cc1ccccc1NC(=O)N1CCN(C(=O)c2ccco2)CC1
 : 11	-2.1	-1.8%	1%	u	23%	-10
CCCNC(=O)c1onc(CSc2ccncc2)c1C(=O)NCCC
 : 1	1.8	-0.8%	3%	-14%	8%	-10
COc1ccc(C)cc1NC(=O)CCCN1C(=S)NC(C)(C)CC1C (stereo not given)
 : u	-2.3	1.6%	0%	-8%[15.4 µM]	2%	-11
COc1ccc(OC)c(-c2cc(C(=O)NCc3ccc(Cl)cc3)no2)c1
 : 9	-8.7	u	-10%	5%	31%[activator]	-19
O=C(CCc1ccccc1)N[C@@H]1c2ccccc2CC[C@H]1OCc1ccccc1
 : x	x	-2.1%	-26%	x	x	-7
Cc1n[nH]c(=S)n1/N=C/c1ccccc1OCc1ccc(Cl)cc1Cl
 : -11	x	u	9%	-6%[15.4 µM]	4%	-8
CC(C)CCOP(=O)(c1ccc(N(C)C)cc1)C(O)c1c(Cl)cccc1Cl (stereo not given)
 : -3	4.5	-2.8%	-16%	-7%	2%	-5
O=C(OCc1ccccc1Cl)c1ccccc1C(=O)c1ccccc1
 : -5	2.4	-0.2%	u	-60%[inhibitor]	-1%	-9
CCOc1ccc(-c2nnn(CC(=O)NCCc3c[nH]c4ccccc34)n2)cc1
 : 10	0.8	4.6%	1%	9%	-2%	-2
O=C(NN=C1CCCCC1)NC1CCCCC1
 : 2	1.8	1.3%	9%	-40%	-4%	-14
CCOC(=O)c1ccc(N2C(=O)C=CC2=O)cc1
 : 7	3.5	0.4%	-9%	-40%[inhibitor]	3.5µM*	-23
CCOC(=O)N1CCN(C(=S)Nc2ccc3nc(N4CCN(CC)CC4)cc(C)c3c2)CC1
 : 5	6.7	16µM*	-9%	4%	-1%	-12
COc1ccc(CCNC(=O)COC(=O)c2cc(S(=O)(=O)N3CCOCC3)ccc2C)cc1OC
 : x	x	-0.3%	-10%	-80%[inhibitor]	x	-9
COc1ccc(Cl)cc1NC(=S)N(Cc1ccccc1C)CC1CCC(C(=O)O)CC1 (stereo not given)
 : -1	0.4	x	-17%	-86%[inhibitor]	56µM*	8
Cc1nc(N2CCCCC2)c2c(C)c(C(=O)Nc3ccc4c(c3)OCCO4)sc2n1
 : -28	2.1	-1.6%	6%	-4%	-26%	-13
O=C(Nc1cc(S(=O)(=O)N2CCCCC2)ccc1Cl)c1ccc(F)cc1
 : -11	x	2.0%	5%	-25%	x	-11
CCOc1ncccc1C(=O)Nc1nnc(C(CC)CC)s1
 : -7	-2.0	0.0%	6%	19%	21%	2
CCOC(=O)N1CCC(NC(=O)Cn2c3ccccc3c3cn[nH]c(=O)c32)CC1
 : 1	-0.4	x	x	x	12%	x
CN1CCN(C(=O)/C(=C/c2cn(S(=O)(=O)N(C)C)c3ccccc23)NC(=O)c2ccccc2)CC1
 : -3	-1.2	-1.3%	-6%	2%	6%	-19
COc1ccc(CNC(=O)C2Cc3cc(S(=O)(=O)N4CCCC4)ccc3N2C(C)=O)c(OC)c1 (stereo not given)
 : 21	x	-1.0%	2%	-11%	9%	-8
Cc1cc(C)n(-c2nnc(C)n2NC(=O)c2cccc(Cl)c2)n1
 : -10	-2.3	0.7%	1%	-12%	14%	-4
CN1CC(=O)N(CC(=O)Nc2ccc(F)cc2)c2ccccc2C1=O
 : -10	1.7	-0.1%	19%	0%	22%	-23
Cc1ccccc1C(=O)NC(=S)N(CCO)Cc1ccccc1
 : 5	-1.1	0.0%	10%	-1%[15.4 µM]	-2%	-4
Cc1ccc(NC(=O)c2ccc(CNc3c(N4CCC(C)CC4)c(=O)c3=O)cc2)cc1
 : -2	1.2	x	-11%	4%[15.4 µM]	13%	0
O=C(O)C1CC(c2ccccc2)=NO1 (stereo not given)
 : 4	-1.8	-0.6%	-1%	21%	3%	-1
CN(C)Cc1ccccc1Sc1ccc2c(c1)CCCC2
 : x	x	x	3%	18%[15.4 µM]	x	-15
CCC(C)[C@H](NC(=O)NCC1CCCO1)C(=O)OC (stereo not given in full)
 : 4	-2.3	-1.8%	3%	-6%	7%	-2
COc1ccc(S(=O)(=O)N2CCN(Cc3ccccc3)CC2)cc1OC
 : -9	-2.5	1.1%	1%	-2%	1%	-9
Cc1cc(C)n(-c2nc(Nc3ccccc3C(F)(F)F)nc(-n3nc(C)cc3C)n2)n1
 : 9	3.6	-14%	28µM*	6%	u	-2
Cc1c(OCC(=O)N[C@H](C(=O)O)c2ccccc2)ccc2c3c(c(=O)oc12)CCCC3
 : 12	-1.0	5.2%	-23%	x	23%	-24
CCOC(=O)C1=C(N)Oc2c(c(=O)[nH]c3ccccc23)C1c1ccccc1 (stereo not given)
 : -9	-3.7	-13%	-2%	-34%[inhibitor]	20µM*	8
CCN(CC)CCCN1C(=O)C(=O)/C(=C(/O)c2ccc3c(c2)OCCO3)C1c1ccco1 (stereo not given)
 : -16	1.4	0.1%	-2%	1%	3%	4
CC1CC(C(F)(F)F)n2nc(C(=O)O)cc2N1 (stereo not given)
 : -4	-0.1	1.2%	3%	3%	-4%	0
Cn1c(SCC#N)nnc1-c1cccnc1
 : 13	-4.5	x	-9%	3%[15.4 µM]	28%	-2
CC(=O)N(c1ccccc1C)S(=O)(=O)c1ccc(Cl)cc1
 : 5	-1.7	2.2%	1%	-32%[inhibitor]	16%	-7
CCCc1ccc(OCc2ccc(C(=O)N3CCN(c4ccccn4)CC3)o2)c(OC)c1
 : 0	3.5	-3.9%	u	-55%[inhibitor]	-22%	2
Cc1cc(SCC(=O)O)nc2ccccc12
 : -9&6	2.9&2.8	x	-1%&-1%	27%&-3%[15.4 µM]	-7%&7%	-6&-2
CN(C(=O)CN1C(=O)NC2(CCCc3ccccc32)C1=O)C1CCCCC1 (stereo not given)
 : x	x	-0.6%	7%	-3%	x	-2
Cc1ccc(N2C(=O)CC(Sc3ncn[nH]3)C2=O)cc1 (stereo not given)
 : -15	0.4	-0.5%	0%	-54%	56µM*	-9

# Looked up by compound from the entries so far, four records:
# Second line of a record – TRPV1 potentiator	Menin-MLL FL inh	ClpP mod	gsp antagonist	gsp agonist	Sfp PPTase inh	D2 PAM
CC(=O)N(c1ccccc1C)S(=O)(=O)c1ccc(Cl)cc1
 : 5	-1.7	2.2%	1%	-32%[inhibitor]	16%	-7
O=C(O)C1CC(c2ccccc2)=NO1 (stereo not given)
 : 4	-1.8	-0.6%	-1%	21%	3%	-1
Cc1cc(C)n(-c2nc(Nc3ccccc3C(F)(F)F)nc(-n3nc(C)cc3C)n2)n1
 : 9	3.6	-14%	28µM*	6%	u	-2
Cc1c(OCC(=O)N[C@H](C(=O)O)c2ccccc2)ccc2c3c(c(=O)oc12)CCCC3
 : 12	-1.0	5.2%	-23%	x	23%	-24

# Carrying on:
# Second line of a record – TRPV1 potentiator	Menin-MLL FL inh	ClpP mod	gsp antagonist	gsp agonist	Sfp PPTase inh	D2 PAM
CN1CC(=O)N(CC(=O)NC2CCCCC2)C1=O
 : x	x	-0.5%	12%	-6%[15.4 µM]	x	17
CC(C)CN(C(=O)CCC(=O)OCC(=O)N(C)c1ccccc1)c1c(N)n(CC(C)C)c(=O)[nH]c1=O
 : 6	x	28µM*	9%	10%	x	13
Cc1ccc(C(=O)N/C(=C/c2ccco2)C(=O)Nc2cccc(C)c2)cc1
 : -2	9.4	-1.5%	-1%	10%	35µM*	-18
COc1cccc(/C=C2\SC(=O)N(CC(=O)NC3CCS(=O)(=O)C3)C2=O)c1 (stereo not given)
 : -23	x	-2.5%	-9%	-1%	8%	-2
CN(C)CCN(C(=O)CCS(=O)(=O)c1ccccc1)c1nc2cc3c(cc2s1)OCO3
 : 23	x	-1.7%	-2%	-5%	-11%	-20
COc1ccc(N2CCSC2C(=O)NN)cc1 (stereo not given)
 : 20	0.5	1.7%	-1%	-16%	2%	-23
Cc1ccc2c(c1)c(C)c(C)n2CC(O)CN1CCOCC1 (stereo not given)
 : -16	0.5	u	-4%	-18%	1%	-22
CC1CCN(C(=O)CSc2nnc(CSc3ncccn3)n2C)CC1
 : -2	0.8	-0.2%	-2%	0%	-11%	-1
O=C(NNC(=O)c1ccccc1-n1cccc1)c1cncc(Br)c1
 : x	x	-1.0%	-6%	17%	x	0
CCC(COC(=O)Nc1ccccc1)NC(=O)OC(C)C (stereo not given)
 : 1	2.8	x	2%	u	3%	-7
C=CCN1C(=O)/C(=C2/Sc3ccc(OC)cc3N2C)SC1=NCc1ccccc1
 : 9	7.3	1.7%	12%	13%	-1%	-8
CCC1(c2ccc(F)cc2)NC(=O)N(CC(=O)N2c3ccccc3NC(=O)C2(C)C)C1=O (stereo not given)
 : -11	x	1.2%	5%	16%[15.4 µM]	x	-12
O=C(c1ccc(-n2cncn2)c([N+](=O)[O-])c1)N1CCN(S(=O)(=O)c2ccccc2Br)CC1
 : -2	x	-6.5%	-11%	16%[15.4 µM]	x	29
O=C(Nc1ccc(N2CCOCC2)c(Cl)c1)c1ccc2c(c1)OCCO2
 : -11	2.1	0.5%	-7%	-8%	-2%	-4
O=S(=O)(NC1CCCCC1)c1ccc(Cl)nc1
 : 0	3.2	-1.3%	6%	-23%[15.4 µM]	-7%	-8

# Bioassay records: PubChem BioAssay, National Center for Advancing Translational Sciences (NCATS)
